Compound activity from PubChem.
Vaccinia Venus = inhibitors of vaccinia virus (Venus reporter) | AID 720580 | 330,000 tested, 0.46% active | Potency, µM (doses to about 36.5 µM), for inactives: at the top dose activity change, negative = inhibition, hits mostly inhibitors | Vaccinia virus Venus reporter expression, fluorescence; active means well fitted inhibition curve with a large enough effect; inconclusive means small, poorly fitted or top-dose-only effect; inactive means no such curve, though single readings can be large or run the other way; tested in A549 cells; also: nearly all actives have a fitted effect of over 30% in size; inactives centre near -10
VACV mCherry inh = vaccinia inhibition (mCherry reporter); Potency, µM (highest dose often 36.5 µM), inactives show at the top dose activity change, negative = inhibition, most hits filed as inhibitors; Vaccinia virus mCherry reporter infection, fluorescence; about a quarter of the inactives have no number; 310,000 tested, 0.63% active; AID 720579; active = well fitted inhibition curve with a large enough effect; inconclusive = small, poorly fitted or top-dose-only effect; inactive = no such curve, though single readings can be large or run the other way; tested in A549 cells; also: nearly all actives have a fitted effect of over 35% in size; inactives centre near -10
* marks the source's active call; other numbers are inactive results; i = inactive; ? = inconclusive; / = not tested or not shown; & = joins results of further samples. % is scaled to controls: 0 for no effect and ±100 for the full control effect; potency is read from the fitted curve at half-maximal effect.

The opening 23 records, to show the layout:
SMILES	Vaccinia Venus	VACV mCherry inh
COc1ccccc1C(=O)NC1(C(F)(F)F)C(=O)NC(C)=C1C#N (centres undefined)	-5%	-8%
Cc1ccc(C(=O)NNC(=O)c2ccc3ncccc3c2)cc1	-8%	-1%
COc1ccc(C(=O)NC(=S)N2CCN(c3ccccc3OC)CC2)cc1	-29%	?
Cc1[nH]c2ccc(C(=O)Nc3ccc(F)cc3)cc2c1C	-13%	-3%
O=C(CSc1nc2[nH]ncc2c(=O)[nH]1)NCc1ccc(F)cc1	-7%	i
CCOCCCN(C(=O)Cn1nnc(-c2ccc(OC)c(OC)c2)n1)C(C(=O)NCC1CCCO1)c1ccc(F)cc1 (centres undefined)	-7%	-2%
O=C(Cc1ccc(NC(=O)C2CCCN(C(=O)C3CCCC3)C2)cc1)Nc1cccc(C(=O)N2CCCC2)c1 (centres undefined)	-12%	-4%
C/C(=N\NS(=O)(=O)c1ccc(C)c([N+](=O)[O-])c1)c1cccs1	-12%	i
CC(C)n1nnnc1SCC(=O)NCc1ccco1	-2%	-10%
CCN(C(=O)CSc1nc2ccccc2c(=O)n1CCOC)C1CCS(=O)(=O)C1 (centres undefined)	-8%	-6%
CCOC(=O)c1c(-c2ccc(C)o2)csc1NC(=O)CN1CCOCC1	-22%	-5%
COCc1cc(OC(=O)N(C)C)nc(-c2ccc(C)c(Cl)c2)n1	2%	-9%
COc1ccc(NC(=O)c2cccc3c2C(=O)c2ccc(-c4cnc(OC)nc4)cc2S3(=O)=O)cc1	-8%	-10%
O=C(Nc1ccc(O)c2c(=O)cc(-c3cccc(Cl)c3)oc12)c1cccc(Cl)c1	?	i
O=C(OCc1ccccc1C(F)(F)F)c1cc([N+](=O)[O-])ccc1N1CCOCC1	-23%	?
CCOC(=O)CNC(=O)CNC(=O)c1ccc(OC)cc1	1%	/
CC(CCc1ccccc1)NC(=O)N1CCOCC1 (centres undefined)	-2%	-14%
O=c1n(Cc2ccccc2)nc2n1-c1cc(Cl)ccc1OC2	-12%	-3%
COCCNC(=O)c1csc2c1CCCC2	0%	-3%
COc1cc(Cl)c(C)cc1Nc1nnc(-n2nc(C)cc2C)c2ccccc12	2%	-2%
OCCNCCCCOc1ccc(OCc2ccccc2)cc1	-21%	-9%
CNC(=O)C[C@H]1C(=O)N(Cc2ccccc2)C[C@@H]1Cc1ccccc1	-12%	i
CCCNC(=O)C1(C)CCN1C(=O)c1ccc(C(C)(C)C)cc1 (centres undefined)	-5%	i

The whole of this part, repeating the preview:
SMILES	Vaccinia Venus	VACV mCherry inh
COc1ccccc1C(=O)NC1(C(F)(F)F)C(=O)NC(C)=C1C#N (centres undefined)	-5%	-8%
Cc1ccc(C(=O)NNC(=O)c2ccc3ncccc3c2)cc1	-8%	-1%
COc1ccc(C(=O)NC(=S)N2CCN(c3ccccc3OC)CC2)cc1	-29%	?
Cc1[nH]c2ccc(C(=O)Nc3ccc(F)cc3)cc2c1C	-13%	-3%
O=C(CSc1nc2[nH]ncc2c(=O)[nH]1)NCc1ccc(F)cc1	-7%	i
CCOCCCN(C(=O)Cn1nnc(-c2ccc(OC)c(OC)c2)n1)C(C(=O)NCC1CCCO1)c1ccc(F)cc1 (centres undefined)	-7%	-2%
O=C(Cc1ccc(NC(=O)C2CCCN(C(=O)C3CCCC3)C2)cc1)Nc1cccc(C(=O)N2CCCC2)c1 (centres undefined)	-12%	-4%
C/C(=N\NS(=O)(=O)c1ccc(C)c([N+](=O)[O-])c1)c1cccs1	-12%	i
CC(C)n1nnnc1SCC(=O)NCc1ccco1	-2%	-10%
CCN(C(=O)CSc1nc2ccccc2c(=O)n1CCOC)C1CCS(=O)(=O)C1 (centres undefined)	-8%	-6%
CCOC(=O)c1c(-c2ccc(C)o2)csc1NC(=O)CN1CCOCC1	-22%	-5%
COCc1cc(OC(=O)N(C)C)nc(-c2ccc(C)c(Cl)c2)n1	2%	-9%
COc1ccc(NC(=O)c2cccc3c2C(=O)c2ccc(-c4cnc(OC)nc4)cc2S3(=O)=O)cc1	-8%	-10%
O=C(Nc1ccc(O)c2c(=O)cc(-c3cccc(Cl)c3)oc12)c1cccc(Cl)c1	?	i
O=C(OCc1ccccc1C(F)(F)F)c1cc([N+](=O)[O-])ccc1N1CCOCC1	-23%	?
CCOC(=O)CNC(=O)CNC(=O)c1ccc(OC)cc1	1%	/
CC(CCc1ccccc1)NC(=O)N1CCOCC1 (centres undefined)	-2%	-14%
O=c1n(Cc2ccccc2)nc2n1-c1cc(Cl)ccc1OC2	-12%	-3%
COCCNC(=O)c1csc2c1CCCC2	0%	-3%
COc1cc(Cl)c(C)cc1Nc1nnc(-n2nc(C)cc2C)c2ccccc12	2%	-2%
OCCNCCCCOc1ccc(OCc2ccccc2)cc1	-21%	-9%
CNC(=O)C[C@H]1C(=O)N(Cc2ccccc2)C[C@@H]1Cc1ccccc1	-12%	i
CCCNC(=O)C1(C)CCN1C(=O)c1ccc(C(C)(C)C)cc1 (centres undefined)	-5%	i
CCOC(=O)Cn1ncc2c(=O)oc3ccccc3c21	-6%	-12%
Cc1ccc(S(=O)(=O)NC(=O)c2ccccc2F)cc1	-6%	-14%

The closing 2 records of the part above are carried over, then new ones follow:
SMILES	Vaccinia Venus	VACV mCherry inh
CCOC(=O)Cn1ncc2c(=O)oc3ccccc3c21	-6%	-12%
Cc1ccc(S(=O)(=O)NC(=O)c2ccccc2F)cc1	-6%	-14%
O=C1CCC/C=C\C[C@@H](CC(=O)N(CCO)Cc2ccccc2)C(=O)N[C@H](c2ccccc2)CO1	-6%	i
C/C(=C\C(=O)O)C12CC3CC(CC(C3)C1)C2	0%	-11%
CCCOC(=O)CSc1ncnc2sc3c(c12)CCC(C)C3 (centres undefined)	3%	3%
Cn1cccc1C(=O)OCC(=O)N1CCc2ccccc2C1	-27%	-15%
CCc1ccccc1NC(=O)c1ccc(F)c(S(=O)(=O)N2CCN(c3ccccc3OC)CC2)c1	-28%	-24%
COc1ccc(C(=O)NCCn2cc(SCC(=O)NCc3ccco3)c3ccccc32)cc1	-12%	i
O=S(=O)(Cc1cc(N2CCOCC2)nc(-c2ccccn2)n1)c1ccccc1	?	-14%
O=C(CSc1nnc(-c2ccncc2)n1-c1ccccc1)Nc1ccc(Cl)c(Cl)c1	-5%	-2%
CC(=O)N1CCN(c2ccc(NC(=S)NC(=O)c3ccc(C)c([N+](=O)[O-])c3)cc2)CC1	-5%	i
COc1cccc(-n2c(=O)c3sc4ccccc4c3n(CC(=O)NC3CCCCC3)c2=O)c1	-3%	-10%
Cn1c2ccccc2c2cc(C(=O)NNC(=O)CCl)sc21	-6%	-1%
CCc1nnc(NC(=O)CCC(=O)N2CCCC(O)C2)s1 (centres undefined)	-2%	-7%
Cc1[nH]c(=O)[nH]c(=O)c1S(=O)(=O)Nc1ccc(Cl)c([N+](=O)[O-])c1	-3%	-18%
CN(C)c1ccnc(Nc2ccc(F)cc2)c1C#N	-3%	i
C=C(C)c1sc(-c2ccccc2)nc1C	-9%	-16%
Clc1ccc(Oc2nc3c(Cl)cccc3s2)cc1Cl	3%	i
Cc1ccc(CNC(=O)C2(C)CCN2C(=O)Cc2ccc(C(C)(C)C)cc2)cc1 (centres undefined)	-15%	i
Cc1ccc(CNC(=O)c2cc(Sc3ccc(F)cc3F)nc3ccccc23)cc1	-15%	-15%
Cc1nc2ccc(NC(=O)c3cccc(S(=O)(=O)N4CC(C)OC(C)C4)c3)cc2s1 (centres undefined)	?	/
CN(C)C(CNc1ncnc2ccccc12)c1c(F)cccc1Cl (centres undefined)	-5%	-4%
CC(=O)c1cccc(NC(=O)CSc2nnnn2C2CCCC2)c1	-7%	-13%
COCCCn1c(=O)c2ccccc2c2ccccc2c1=O	-12%	i
O=C1Nc2ccccc2C1Cc1nc2ccccc2c(=O)n1-c1ccccc1 (centres undefined)	-7%	?
CCNc1nc(SC(C(C)=O)C(C)=O)nc(N(C)C)n1	19%	/
c1ccc(-c2nc(NCc3cccs3)c3ccccc3n2)cc1	-7%	0%

Next section
SMILES	Vaccinia Venus	VACV mCherry inh
COc1cc2c(cc1OC)C(c1ccc(F)cc1)N(c1ccc(F)cc1)C(=O)C2 (centres undefined)	4%	6%
C=C(Br)CN1CCN(CC(=C)Br)CC1	-10%	/
CCN(C(=O)c1cc2c(s1)-c1c(C)cccc1OC2)c1ccccc1F	-5%	-10%
O=c1c2ccccc2[nH]c(=S)n1-c1cccc(Cl)c1	-16%	i
Cc1ccc(NC(=O)NCc2ccncc2)cc1Cl	-9%	i
COc1ccc(CCN2CCC(Nc3nc4ccccc4n3Cc3ccc(F)cc3)CC2)cc1	10µM*	11µM*
CCCCn1c(SCc2ccc(C(=O)OC)o2)nc2cc(S(N)(=O)=O)ccc21	-23%	-16%
CCN1C[C@@H]2[C@@H]3C(=O)N(Cc4ccccc4)C(=O)[C@@H]3[C@](C)(C(=O)OC)N2C1=NC1CCCCC1	3%	-22%
COc1ccccc1CNC(=O)CCC1N=C2c3ccccc3N=C(SCc3ccccc3Cl)N2C1=O (centres undefined)	?	-18%
Cn1c2ccccc2c2cnn(CC(=O)Nc3ccccc3F)c(=O)c21	-17%	i
COCCN(C(=S)Nc1cccc(OC)c1)C1CCN(C(C)C)CC1	-16%	i
N#C/C(=C\c1ccccc1)C(=O)Nc1sc2c(c1C(N)=O)CCC2	-5%	-9%
Cc1cc(NS(=O)(=O)c2ccccc2)no1	-19%	i
O=S(=O)(Cc1ccccc1)Nc1ccccc1Br	-12%	i
CCC(CC)c1nnc(NC(=O)C2CC(=O)N(C3CCCC3)C2)s1 (centres undefined)	2%	-19%
COc1ccc(C)cc1NC(=O)CN1C(=O)COc2ccc(S(=O)(=O)N3CCCCCC3)cc21	-11%&-5%	-7%&-7%
CCOc1ccc(CCNC(=O)c2ccc(C)c(-n3c(C)nc4cccnc43)c2)cc1OCC	-12%	-7%
CCCOc1ccc(CNC(=O)C2CCN(C(=O)c3sccc3-n3cccc3)CC2)cc1	-14%	-13%
CCCCN(CCNP(=O)(OCC)OCC)CP(=O)(OCC)OCC	-11%	/
CCOC(=O)C(=O)N1CCC(Cc2ccccc2)CC1	-15%	-20%
COC(=O)C1=C(C)NC(=O)NC1c1ccc(OC(=O)c2ccco2)cc1 (centres undefined)	-14%	2%
Cc1ccc(C(=O)O)cc1-c1ccc(/C=C2/NC(=O)N(c3ccccc3)C2=O)o1	5%	-3%
O=C1NC[C@H](CCCCN2C[C@H](Cc3ccc(O)cc3)N(CCc3ccccc3)C(=O)C2=O)N(CCc2ccccc2)C1=O	-15%	0%
CC(C)CN(C(=O)COC(=O)c1ccc(Br)cc1)c1c(N)n(Cc2ccccc2)c(=O)[nH]c1=O	13µM*	?
Cc1cc(C)cc(-n2ncc3c2CCCC3NC(=O)C2(C(N)=O)CC2)c1 (centres undefined)	-18%	-23%

(cont.)
SMILES	Vaccinia Venus	VACV mCherry inh
Oc1c(CN2CCOCC2)ccc2ccccc12	-1%	?
Cc1ccc(C(=O)CSc2nc3cc(C(=O)NC4CCCC4)ccc3c(=O)n2CC2CCCO2)c(C)c1 (centres undefined)	-14%	-8%
Cc1cccc(CSCC(=O)N2CCN(S(=O)(=O)c3ccccc3C#N)CC2)c1	-15%	-2%
COc1ccc(NC(=S)Nn2cnnc2)c(OC)c1	-5%	i
Cc1cc(C)cc(OCc2cc(=O)n3cc(C)sc3n2)c1	-1%	-8%
Cc1cc(Cl)ccc1OCC(=O)N(Cc1ccco1)Cc1ccco1	-3%	14%
CC1(C)NC(=O)[C@H]2CCCN21	-7%	i
C=CC[n+]1cccc2cccc(O)c21	-10%	i
CN(C)CCCOC(=O)C1c2ccccc2Oc2ccccc21	-18%	i
CSc1ncc(Cl)c(C(=O)Nc2ccc(NC(C)=O)cc2)n1	-17%&-11%	-16%&-12%
CCc1cccc(CC)c1NC(=O)CO/N=C(\N)CC(=O)NC1CCCCC1	-3%	-13%
Cc1ccc2cc3cc(C(=O)N4CCN(c5ccccc5)CC4)sc3nc2c1	4%	4%
COC(=O)C(=N/Nc1ccccc1C(=O)OC)/C(C)=N/O	-14%	0%
O=Cc1c(NCc2ccco2)nc2ccccn2c1=O	3%	-2%
Cc1cccc(C)c1NC(=O)C(=O)NCCOc1ccc(Cl)cc1	-18%	-28%
COc1ccc(C2CC(c3c(-c4ccccc4)c4cc(Cl)ccc4[nH]c3=O)=NN2C(=O)CCC(=O)O)cc1 (centres undefined)	-8%	-4%
Cc1ccc(N2CCN(C(=O)c3ccccc3F)CC2)c(C)c1	-11%	?
CCOC(=O)Cc1csc(NC(=O)CC)n1	0%	-2%
O=C(CCN1CCN(S(=O)(=O)c2ccc(Cl)cc2)CC1)Nc1ccccc1F	0%	-19%
